# CDC25B CDK2 inh: human CDC25B-CDK2/CyclinA binding inhibition. P30305+P24941. HTRF CDC25B-CDK2/CyclinA binding, anti-His/anti-Flag; hits give high values. z-score (no concentration beside the values). 0.72% of 94,000 active;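 note: score is relative to mean and SD of negative controls; strong numbers were not always called active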
# HIV TAR-Tat: HIV-1 TAR-Tat binding disruption. HIV-1 TAR RNA, Tat peptide displacement FRET; hits give high values. z-score (test concentration not listed). 0.6% of 100,000 active. AID 1259389;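 note: score is relative to mean and SD of negative controls; some compounds called inactive have numbers as strong as hits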
# * = called active by the depositor; nt = not tested or not shown.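 Rule for the calls: active = z-score from 3 up in half or more of its runs; inactive = the rest.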
SMILES,CDC25B CDK2 inh,HIV TAR-Tat
COc1ccc(Cl)cc1NC(=O)NCC1CCN(C2CCCC2)C1 (stereo not drawn),-1.12,0.27
CC(C)c1ccc(C2c3c(-c4ccccc4O)n[nH]c3C(=O)N2CCO)cc1 (stereo not drawn),-1,0.72
O=C(Cn1c(=O)n(-c2ccccc2Cl)c(=O)c2sc3ccccc3c21)N1CCCC1,-1.49,0.72
CCCCc1ccc(NC(=O)CSc2nnc(N)s2)c(C)c1,-1.24,nt
COC(=O)c1cc(OC)c(OC)cc1NC(=O)CC(CC(=O)O)c1cc(OC)c(OC)c(OC)c1 (stereo not drawn),0.64,nt
CCOC(=O)C1CCCN(c2c(S(=O)(=O)c3ccc(OC)cc3)cnc3ccc(OCC)cc23)C1 (stereo not drawn),-2.55,2.26
O=C(Cn1c(=O)sc2cc(S(=O)(=O)N3CCc4ccccc4C3)ccc21)N1CCCC1,nt,0.33
Cc1c(C(=O)NC(C)C)oc2ccc(S(=O)(=O)N3CCCC3)cc12,1.48,nt
Cc1ccc(S(=O)(=O)NC(C)c2nc(-c3ccc(Cl)cc3)no2)cc1 (stereo not drawn),2.11,1.42
NC(=O)C1CC2CCC1CC2 (stereo not drawn),-2.27,nt
Cn1c(=O)oc2cc(S(=O)(=O)N3CCC4(CC3)OCCO4)ccc21,-1.99,nt
CC1CCCCC1NC(=O)C1=CCN(S(=O)(=O)c2ccc(Br)cc2)CC1 (stereo not drawn),-1.08,-0.84
CCOC(=O)CSc1nnc(Cn2nnc3ccccc32)n1-c1ccc(F)cc1,-1.47,nt
CCC(C(=O)NC)N1C(=O)CCn2nc(C)cc21 (stereo not drawn),nt,1.11
Cc1nc(CNC(=O)c2oc3cc(C)c(C)cc3c2C)cs1,-0.56,0.84
CN1CCN(c2oc(-c3ccc(S(=O)(=O)N4CCc5ccccc5C4)cc3)nc2C#N)CC1,1.02,1.07
CCOc1ccc(C(Nc2ccccn2)c2ccc3ccc(C)nc3c2O)cc1C (stereo not drawn),0.48,0.98
C=CCN(C(=O)CCNS(=O)(=O)c1ccc2c(c1)c(=O)n(C)c(=O)n2C)C1CCCCC1,-0.86,nt
Cc1cc(C)nc(SCCn2c(N3CCCCC3)nc3c2c(=O)n(C)c(=O)n3C)n1,1.45,0.45
Cn1nc(C(=O)N(Cc2cccs2)C2CCCC2)c2c1-c1ccccc1SC2,0.34,0.35
CCOC(=O)C(C)N1C(=O)CCSc2ccccc21 (stereo not drawn),-1.58,-0.47
Cc1ccccc1C1CC(=O)Oc2c1c(=O)n(C)c1ccccc21 (stereo not drawn),1.14,0.28
O=C(NC(=O)N1CCSCC1)c1ccc(Oc2ccc(C(F)(F)F)cc2[N+](=O)[O-])cc1,-1.5,nt
O=C(O)C1C2CCC(C2)C1C(=O)NCC1CCCO1 (stereo not drawn),-1.32,0.82

# Overlap with the part before: 2 compounds, then new ones.
SMILES,CDC25B CDK2 inh,HIV TAR-Tat
O=C(NC(=O)N1CCSCC1)c1ccc(Oc2ccc(C(F)(F)F)cc2[N+](=O)[O-])cc1,-1.5,nt
O=C(O)C1C2CCC(C2)C1C(=O)NCC1CCCO1 (stereo not drawn),-1.32,0.82
COc1cc(OC)cc(C(=O)Nc2nc3c(s2)CCc2ccc(OC)cc2-3)c1,-0.88,1.1
CCCc1nnc(NC(=O)c2sc(C)nc2C)s1,-1.13,1.71
CCCCc1ccc(N2CC(C)Cn3c2nc2c3c(=O)n(CC(=O)O)c(=O)n2C)cc1 (stereo not drawn),-0.79,1.77
CCn1cc(C(=O)O)c(=O)c2cc(F)c(N3CCN(C(=O)c4cc(OC)cc(OC)c4)CC3)cc21,0.51,nt
CCOC(=O)C1=C(CC)NC2=C(C(=O)CC(C)(C)C2)C1c1ccc2c(c1)OCO2 (stereo not drawn),-1.14,-0.56
CCOc1ccc(S(=O)(=O)[C@H]2CS(=O)(=O)C[C@@H]2NC(C)C)cc1,-0.93,0.15
COc1ccccc1C1Nc2cccc3cccc(c23)N1,-0.15,4.01
O=C(O)CSCC(=O)N1CCN(c2ccc(F)cc2)CC1,-0.55,nt
COc1ccc(OC)c(Nc2ncnc3onc(-c4ccc(C)cc4)c23)c1,nt,2.9
Cn1c(=O)c2c(nc(CN3CCOCC3)n2Cc2ccccc2)n(C)c1=O,-1,3.02
Cc1ccc(C)c(S(=O)(=O)N(CCS(=O)(=O)N2CCNCC2)Cc2ccccc2Cl)c1,nt,1.75
O=C(CSc1nnc(-c2cccs2)o1)Oc1ccc(Cl)cc1,-0.96,0.47
COc1ccc(N2C(=O)c3cccnc3C2Nc2ccc(Br)cc2)cc1 (stereo not drawn),-1.75,0.6
CCOc1ccc2nc(Nc3nc4c(c(=O)[nH]3)CCCC4)nc(C)c2c1,2.74,nt
NC(N)=NC(N)=Nc1ccc(Cl)cc1C(=O)c1ccccc1,-1.45,nt
CCCCc1ccc(-n2c(-c3ccncc3)n[nH]c2=S)cc1,-1.76,nt
CC(C)c1nn2cc(-c3ccc(F)cc3)nc2s1,0.11,1.77
O=C1NC2(O)C(=O)c3ccccc3C2(O)N1c1ccccc1 (stereo not drawn),1.01,nt
Cc1c(C(=O)O)oc2c1-c1c(cnn1C)CC2,2.98,-2.38
Cc1cc(-c2ccccc2)c2c(n1)sc1c(O)cc(=O)[nH]c12,-1.59,-1.13
CCOC(=O)Cn1c(Sc2nc3c(c(=O)n(C)c(=O)n3C)n2C)nc2ccccc21,-0.09,0.6
O=C(c1cccnc1)N(c1ccc2oc(=O)sc2c1)S(=O)(=O)c1cccs1,-3.07,-0.77
O=c1c2ccccc2nc2n1CCN2CCOc1ccccc1Cl,-1.46,1.45
CCOC(=O)c1cc2c(C)n(-c3ccc(N(C)C)cc3)c(C)c2cc(C(=O)OCC)c1=O,-0.55,-0.32
O=c1c2cc3c(cc2nc(SCc2nc(-c4ccc(Cl)cc4)no2)n1Cc1ccco1)OCO3,nt,-0.09
COc1ccc(SCC(O)CNCc2ccc(Cl)cc2)cc1 (stereo not drawn),0.39,nt
O=C(Nc1ccc(Cl)cc1O)c1ccco1,-1.98,0.36
CC(NC(=O)c1ccc2nc(N3CCOCC3)sc2c1)c1ccc2c(c1)OCCO2 (stereo not drawn),-2.17,-2.14
O=C1CC2(CCCC2)C(=O)N1c1ccc(S(=O)(=O)N2CCc3ccccc3C2)cc1Cl,-1.63,nt
Cc1ccc(S(=O)(=O)NCC(=O)OCc2ccccc2)cc1,-1.59,nt
Cc1ccccc1C(=O)Nc1c(C(=O)N(Cc2ccco2)CC2CCCO2)oc2ccccc12 (stereo not drawn),nt,1.65
Cc1noc(C)c1S(=O)(=O)N(C)c1ccc(Br)cc1,-1.38,0.26
CCC1CN(S(=O)(=O)c2cc(-c3onc(C)c3C)ccc2OC)c2cc(Cl)ccc2O1 (stereo not drawn),nt,1.52
CC(C)c1nnc(NC(=O)CSc2nnc3c4ccccc4n(C)c3n2)s1,-0.82,1.39
COc1ccc(CN2CCN(Cc3ccco3)CC2)cc1Br,0.02,1.22
Cc1nn(C(C)C(=O)NC2CC2)c(=O)c2nn(-c3ccccc3)c(C)c12 (stereo not drawn),nt,0.91
COCCN1CCn2c(nc3cc(NC(=O)NC4CCCCC4)ccc32)C1,7.05*,-0.33
CCS(=O)(=O)c1nc(S(=O)(=O)c2ccc(C)cc2)c(NCCOC)s1,-0.75,0.31
CC1CCCN(C(=O)c2ccc3c(Cl)c4c(nc3c2)CCC4)C1 (stereo not drawn),-1.61,1.23
CS(=O)(=O)CCC(C(=O)NCc1ccccn1)N1Cc2ccccc2C1=O (stereo not drawn),nt,-0.22
CCC1C(=O)C2(CCCCC2)C(=O)OC1c1ccc(F)cc1 (stereo not drawn),-1.29,1.6
CCC1CCCCN1CCCNC(=O)C1CCN(c2nn3c(=O)c4c(nc3s2)CCCC4)CC1 (stereo not drawn),nt,1.25
CCOC(=O)CN1CC23C=CC(O2)C(C(=O)Nc2ccc(OCC)cc2)C3C1=O (stereo not drawn),nt,-0.02
CCOc1cc(/C=C2/C(=N)N3N=C(CC)SC3=NC2=O)ccc1OC(=O)c1cccc([N+](=O)[O-])c1,-0.34,nt
NS(=O)(=O)c1ccc2nc(NC(=O)CSc3ccccc3)sc2c1,nt,1.06
Cc1cccc(C(=O)Nc2c3c(nn2C(C)(C)C)CS(=O)(=O)C3)c1,nt,1.24
Cc1cc(C)c(NC(=O)c2cnn3c4c(cnc23)C(=O)CC(C)(C)C4)c(C)c1,nt,1.51
S=C1NCN(CCc2ccccc2)CN1Cc1ccccc1,0.7,nt
Cc1ccc(-c2nsc(NC(=O)COc3ccc(Cl)cc3)n2)s1,-2.22,1.1
COc1ccc(OC)c(NC(=O)CSc2nc3ccccc3c(=O)[nH]2)c1,nt,2.59
O=C(NCc1ccco1)c1[nH]c2ccccc2c1Sc1ccc(Cl)cc1,-1.24,0.76
Fc1cccc(CN2CCN(C3c4ccccc4-c4ccccc43)CC2)c1,nt,0.2
CCn1c(SCc2c(C)ccc3ccccc23)nc2c1c(=O)n(C)c(=O)n2C,-1.69,1.64
CCOc1cc(C2CC(=O)Nc3c2c(=O)n(C)c(=O)n3C)ccc1O (stereo not drawn),-2.34,0.38
CCC(C)NC(=O)c1cnc2c(C)cccn2c1=O (stereo not drawn),nt,0.82
CCn1cnc(S(=O)(=O)N2CCCC(C(=O)Nc3cc(C)on3)C2)c1 (stereo not drawn),nt,0.21
CCC1c2ccc(C)n2CCN1C(=O)Nc1cc(OC)cc(OC)c1 (stereo not drawn),-0.56,-9.59
CCOc1cc(C2CC(=O)NC3=C2C(=O)CC(c2cccs2)C3)ccc1O (stereo not drawn),-0.9,0.88
O=C(c1ccccc1)N1c2ccccc2-c2ccccc2S1(=O)=O,-1.4,nt
O=C(CSc1nc2ncccc2o1)Nc1cccc(Br)c1,nt,0.37
# The results go on.
SMILES,CDC25B CDK2 inh,HIV TAR-Tat
O=C(NC1CC2CCC1C2)c1n[nH]c(=O)c2ccccc12 (stereo not drawn),-1.11,0.63
CC1CCN(c2nc3ccccc3nc2SCC(=O)NCC2CCCO2)CC1 (stereo not drawn),-1.24,-6.7
O=C(O)CC(F)(F)C(=O)O,0.58,nt
COC(=O)c1sc2ccccc2c1S(=O)(=O)Nc1ccccc1Cl,nt,-1.01
O=S(=O)(Nc1ccccc1N1CCOCC1)c1ccc(S(=O)(=O)c2ccccc2)s1,1.56,nt
CCCNC(=O)C(C)n1ccc2cc(S(=O)(=O)N3CCCC3)ccc21 (stereo not drawn),nt,0.46
CC1Cc2ccccc2N1c1ncnc2c1nnn2C (stereo not drawn),nt,1.74
CCOC(=O)C1CCN(c2ccc3cc(S(=O)(=O)N4CCCC4)ccc3n2)CC1,nt,2.23
CCCCCCCCCCCC1=C(O)C(=O)C=C(O)C1=O,nt,4.53
O=C1c2ccccc2C(Nc2ccc(S(=O)(=O)N3CCCCCC3)cc2)N1Cc1ccco1 (stereo not drawn),-1.31,nt
Cc1sc2c(c1C)CSC(C(=O)Nc1cccc(F)c1)=C2,nt,1.27
CCOC(=O)c1c(NC(=O)c2nn(C)cc2[N+](=O)[O-])sc(C)c1C,-0.48,-0.49
CCOc1ccc2c(c1)NC(c1ccc(N3CCOCC3)cc1)=NC(c1cccs1)=N2,-0.93,0.13
N#Cc1sc(C(N)=O)c(-c2ccccc2)c1-c1ccccc1,-2.63,nt
C#CCn1c(C2CC(=O)N(c3ccccc3OCC)C2)nc2ccccc21 (stereo not drawn),-0.53,1.53
COc1ccc(NS(=O)(=O)c2ccc3c(c2)CC(C)N3C(=O)C2CC2)c(OC)c1 (stereo not drawn),nt,0.7
COC(=O)c1sc2cccc(F)c2c1S(=O)(=O)Nc1ccc2c(c1)OCCO2,nt,0.06
CCNc1nc(NCC)nc(C(=O)OCCO)n1,1.64,0.7
CCOC(=O)CN(Cc1cccs1)S(=O)(=O)c1ccc(Br)cc1,nt,2.65
N/C(=N\NS(=O)(=O)c1ccccc1OC(F)(F)F)c1cnccn1,-2.14,nt
CC1=C(C(=O)Nc2cc(C(=O)NC3CCCCC3)ccc2C)SCCO1,nt,2.97
O=C(Nc1cccc2cccnc12)c1cccs1,-1.23,0.97
Cc1nc(NCc2ccco2)nc2c1C(=O)CC(C)C2 (stereo not drawn),-1.96,1.91
CCOC(=O)c1c(S(=O)(=O)Nc2ccc(F)c(F)c2)c(C)n(C)c1C,nt,0.61

# In the list so far, these have an aryl thioether with sulfur outside any ring.
SMILES,CDC25B CDK2 inh,HIV TAR-Tat
CCCCc1ccc(NC(=O)CSc2nnc(N)s2)c(C)c1,-1.24,nt
CCOC(=O)CSc1nnc(Cn2nnc3ccccc32)n1-c1ccc(F)cc1,-1.47,nt
Cc1cc(C)nc(SCCn2c(N3CCCCC3)nc3c2c(=O)n(C)c(=O)n3C)n1,1.45,0.45
O=C(CSc1nnc(-c2cccs2)o1)Oc1ccc(Cl)cc1,-0.96,0.47
CCOC(=O)Cn1c(Sc2nc3c(c(=O)n(C)c(=O)n3C)n2C)nc2ccccc21,-0.09,0.6
O=c1c2cc3c(cc2nc(SCc2nc(-c4ccc(Cl)cc4)no2)n1Cc1ccco1)OCO3,nt,-0.09
COc1ccc(SCC(O)CNCc2ccc(Cl)cc2)cc1 (stereo not drawn),0.39,nt
CC(C)c1nnc(NC(=O)CSc2nnc3c4ccccc4n(C)c3n2)s1,-0.82,1.39
NS(=O)(=O)c1ccc2nc(NC(=O)CSc3ccccc3)sc2c1,nt,1.06
COc1ccc(OC)c(NC(=O)CSc2nc3ccccc3c(=O)[nH]2)c1,nt,2.59
O=C(NCc1ccco1)c1[nH]c2ccccc2c1Sc1ccc(Cl)cc1,-1.24,0.76
CCn1c(SCc2c(C)ccc3ccccc23)nc2c1c(=O)n(C)c(=O)n2C,-1.69,1.64
O=C(CSc1nc2ncccc2o1)Nc1cccc(Br)c1,nt,0.37
CC1CCN(c2nc3ccccc3nc2SCC(=O)NCC2CCCO2)CC1 (stereo not drawn),-1.24,-6.7
